Screens deposited in PubChem by National Center for Advancing Translational Sciences (NCATS).
gsp antag – gsp mutant antagonism | gsp-mutant cells, cAMP HTRF, 30 min; control for the full effect not named in the record | Potency, µM (titrated, usually from 76.9 µM), without a hit: at the top dose activity change, negative = inhibition, actives largely listed as inhibitors | 340,000 compounds, 0.4% hits; active = falling curve of any shape with a large fitted effect; inconclusive = falling curve, mostly with a smaller effect; inactive = flat or rising curve; cell line not stated here;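 also: intracellular cAMP measured with PDE inhibitor Ro 20-1724 present during compound exposure; potency is read from the fitted curve at half-maximal effect; % is scaled to controls: 0 for no effect and ±100 for the full control effect; nearly all actives have a fitted effect of over 65% in size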
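HTRF cAMP measurement after 30 min RT detection following 30 min, 37C compound treatment alongside […] (added as 300 uM solution) in G418-selected cells seeded at 2000/well and grown 16–24 h.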
D2 agonist – activates the human D2 dopamine receptor; P14416; DiscoveRx PathHunter D2 beta-arrestin, luminescence, 90 min; 100% = 57 uM dopamine signal; activation, % (concentration not given with the values); 360,000 compounds, 0.084% hits; AID 624465; in the data active = activation above about 40%; inconclusive = about 15% to 40%; inactive = below about 15%; also: the text of the record calls up to 30% inactive
Target sequence (P14416 whole entry, looked up): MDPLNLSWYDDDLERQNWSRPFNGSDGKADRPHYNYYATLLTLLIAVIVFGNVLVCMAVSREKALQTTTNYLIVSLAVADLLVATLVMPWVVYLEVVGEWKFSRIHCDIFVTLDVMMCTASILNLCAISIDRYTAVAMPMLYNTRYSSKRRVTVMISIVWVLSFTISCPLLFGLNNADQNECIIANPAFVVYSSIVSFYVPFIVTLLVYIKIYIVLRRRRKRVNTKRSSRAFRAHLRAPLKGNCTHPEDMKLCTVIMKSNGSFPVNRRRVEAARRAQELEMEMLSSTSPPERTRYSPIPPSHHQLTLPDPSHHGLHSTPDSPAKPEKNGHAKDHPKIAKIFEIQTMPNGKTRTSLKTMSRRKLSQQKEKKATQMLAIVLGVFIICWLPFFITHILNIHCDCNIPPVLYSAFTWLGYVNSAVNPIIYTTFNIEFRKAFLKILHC
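Agonist mode: compounds alone added to overnight-plated D2 PathHunter cells for 90 min at 37 C, with 57 uM final dopamine (EC100) defining full response. Beta-arrestin recruitment detected by chemiluminescent reagent, read after 1 h at ambient temperature.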
gsp ag – activates gsp, the McCune-Albright syndrome mutation; gsp mutant cells, cAMP HTRF, 30 min; control for the full effect not named in the record; Potency, µM (top dose mostly 76.9 µM), inactives show at the top dose activation (cAMP increase), actives largely listed as activators; 340,000 compounds, 0.13% hits; active = well fitted activation curve with a large enough effect; inconclusive = small, poorly fitted or top-dose-only effect, or another doubt; inactive = no such curve, though single readings can be large or run the other way; cell line not stated here;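 also: phosphodiesterase inhibitor Ro 20-1724 added with compounds to block cAMP breakdown; potency is read from the fitted curve at half-maximal effect; nearly all actives have a fitted effect of over 60% in size; about a fifth of the inactives were tested at one dose only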
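Cells in DMEM/10% FBS with G418 were pretreated with compounds in DMSO plus […] (300 uM stock) for 30 min at 37C. cAMP was measured by HTRF (cAMP-d2 plus anti-cAMP antibody-K) after 30 min at room temperature.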
ClpP mod – qHTS Assay for Activators of ClpP; ATP-dependent Clp protease proteolytic subunit (Bacillus subtilis (strain 168)), P80244; purified B. subtilis ClpP, FRET peptide cleavage, 20 min; Potency, µM (highest dose often 57.5 µM), without a hit: at the top dose activity change, negative = active; 340,000 compounds, 1.9% hits; AID 651965, 2013; active = well fitted falling curve with a large enough effect; inconclusive = small, poorly fitted or top-dose-only effect; inactive = no such curve, though single readings can be large or run the other way; also: potency is read from the fitted curve at half-maximal effect; the source files actives as falling curves though it sought activators and does not explain the sign; nearly all actives have a fitted effect of over 65% in size; many hits overshoot -100%
Target sequence (P80244 whole entry, looked up): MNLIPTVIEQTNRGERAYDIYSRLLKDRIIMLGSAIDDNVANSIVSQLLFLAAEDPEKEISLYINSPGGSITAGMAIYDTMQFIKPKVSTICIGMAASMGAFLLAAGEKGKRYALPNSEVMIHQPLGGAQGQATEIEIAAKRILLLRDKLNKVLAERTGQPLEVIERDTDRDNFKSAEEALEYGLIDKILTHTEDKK
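ClpP 10 microg/mL final, pH 8 Tris/KCl buffer with BSA, glycerol, Tween-20; compound pinned in; FRET-FV substrate; RT 20 min; Ex320/Em430; ΔFRET vs ADEP 5.8 microM, DMSO, no enzyme.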
Menin MLL FP FL – displaces fluorescein MLL peptide from human menin | Fluorescence polarization, fluorescein-MLL peptide displacement from menin | FP activity change, % at 61.4 µM | 290,000 tested, under 10 active | AID 1766; inconclusive = falling polarisation curve, or a change in total fluorescence; inactive = total fluorescence flat and polarisation flat or rising; no compound was filed as active; the % refers to the polarisation; negative = inhibition;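 also: % of control where 0% means no effect; inhibitors lower the polarisation; unlabelled MLL peptide was the positive control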
PINK1 modulator – modulators of PINK1 expression; PINK1 immunofluorescence, high-content cytometry, 24 h; Potency, µM (titrated, usually from 76.6 µM), without a hit: at the highest dose activation (PINK1 increase), hits mostly activators; 410,000 compounds, 0.2% hits; active = well fitted activation curve with a large enough effect; inconclusive = small, poorly fitted or top-dose-only effect; inactive = flat fitted curve, though single readings scatter; cell line not stated here;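 also: potency is read from the fitted curve at half-maximal effect; % of control where 0% means no effect; nearly all actives have a fitted effect of over 65% in size; a mitochondrial uncoupler was the plate control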
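Decision-based qHTS: stable cells, 24 h exposure to five compound concentrations, CCCP as control. Fixed cells stained for PINK1 plus nuclear, mitochondrial and cell markers, cytometer read.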
Sfp PPTase inh – inhibitors of Bacillus subtilis Sfp phosphopantetheinyl transferase; Q9F4F7; Biochemical Sfp PPTase activity, qHTS; Potency, µM, for the others: max response, negative = inhibition, usual class: inhibitors; 310,000 compounds, 3.5% hits; AID 1490; active = well fitted inhibition curve with a large enough effect; inconclusive = small, poorly fitted or top-dose-only effect, or another doubt; inactive = no such curve, though single readings can be large or run the other way;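 also: the enzyme is Sfp with the accession as filed and its product quenches rhodamine fluorescence; potency is read from the fitted curve at half-maximal effect; 0% = enzyme reaction without inhibitor and -100% = no enzyme wells; top concentration of the series not given in the record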
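Sfp 15 nM + cpd, 15 min RT; start w/ rhodamine-CoA 5 uM, BHQ-2-YbbR 12.5 uM (final); 50 mM Hepes pH 7.6, 10 mM MgCl2, 0.01% NP-40, 0.01% BSA; read 525/598 nm at 0 and 30 min.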
Starred values were filed as active, the others as inactive; ? = inconclusive; nt = not tested or not shown; [ ] = dose if it differs, or a comment.

SMILES | gsp antag | D2 agonist | gsp ag | ClpP mod | Menin MLL FP FL | PINK1 modulator | Sfp PPTase inh
COc1ccc(S(=O)(=O)CC(=O)Nc2ccccc2Cl)cc1 | 2.1% | 6.1 | 3.4% | nt | 1.1 | 0.4% | 9.7%
Cn1cnnc1SCC(=O)c1cccc([N+](=O)[O-])c1 | 7.4% | 2.4 | 20.4% | -3.2% | 4.1 | 0.4% | -26.9%
CN=c1scc(-c2ccc(F)cc2)n1/N=C/c1ccc(O)c(O)c1 | 4.2% | 102.9* | -4.7% | nt | -2.5 | 4.1% | 56.2µM*
CC(=C1C(=O)c2ccccc2C1=O)N1CCc2ccccc2C1 | -10.5% | 0.4 | -23.6% | -1.1% | 1.1 | nt | -6.2%
O=C(/C=C/c1ccc(Cl)cc1)N1CCN(c2ccccn2)CC1 | 4.6% | -0.9 | 2.3%[15.4 µM] | -4.1% | -3.3 | ? | 4.6%
CCOc1ccc(NC(=O)CSc2nc(-c3cccs3)cc(C(F)(F)F)n2)c([N+](=O)[O-])c1 | 3.8% | -2.6 | 0.0% | 0.7% | 0.5 | ? | -3.1%
CC(C)(C)NCC(O)COc1c(F)cc(Br)cc1F (centres undefined) | 10.8% | -2.2 | 5.6% | -1.3% | 1.2 | -3.1%[38.3 µM] | 19.6%
O=C(c1cccc(S(=O)(=O)N2CCc3ccccc3C2)c1)N1CCN(c2ccccc2)CC1 | -8.6% | 2.5 | 3.7% | -1.2% | 9.9 | -0.8% | -10.9%
COc1ccc(C2=CSC3=NCCN23)cc1[N+](=O)[O-] | 10.9% | -1.0 | -3.2%[15.4 µM] | 1.2% | -3.6 | -0.1% | 1.9%
O=C(O)/C=C/C(=O)c1ccc2c(c1)CCc1ccccc1-2 | 4.4% | -9.0 | ? | -6.8% | nt | -1.3% | nt
CC1C(=O)NN=C1c1ccc([N+](=O)[O-])cc1 (centres undefined) | -15.8% | -1.2 | 23.9% | -2.3% | nt | -0.1% | nt
COCCn1nc2cc(C(=O)NCC34CC5CC(CC(C5)C3)C4)ccc2c1OC | 5.4% | -6.8 | -3.1% | 3.4% | 4.1 | 0.0% | 5.3%
Cc1cc(C)c(OCC(=O)OCCNC(=O)c2cccnc2)c(C)c1 | -12.3% | 2.3 | 14.4% | -3.0% | 2.4 | 1.2% | 2.3%
Cc1ccc(S(=O)(=O)NC(=O)CSc2nc3ccccc3s2)cc1 | 24.7% | -1.1 | -41.7%[inhibitor] | 3.0% | 1.9 | -5.5%[38.3 µM] | 2.6%
CC(=O)c1cnc2c(-c3ccccc3)c(C)nn2c1C | -3.4% | -1.2 | -19.9% | -0.4% | 0.3 | -0.7% | 9.8%
CCN(CC)Cc1c(NC(=O)c2ccccc2)sc(C)c1C | 5.1% | -5.1 | -3.9% | nt | 10.4 | 0.2% | 15.8%
COc1ccc(C2NC(=S)NC(C)=C2C(=O)c2ccccc2)cc1OC (centres undefined) | 20.0% | -3.4 | 3.7% | -1.9% | -3.6 | 11.7% | 2.5%
O=C(Nc1cccnc1)c1ccc2c(c1)C(=O)N(CC1CCCO1)C2=O (centres undefined) | -0.7% | -1.0 | 20.2% | 1.2% | 1.3 | -0.7% | 14.4%
Cc1ccc(S(=O)(=O)CCc2nnc(NC(=O)COc3cccc(C)c3)s2)cc1 | -1.0% | -0.6 | -20.6% | -0.1% | 8.4 | ? | 8.1%
COc1ccc(-c2nc(CC(=O)O)cs2)cc1 | -3.2% | -2.8 | 5.7% | 22.4µM* | 4.0 | -0.5% | 8.6%
Cc1cccc(C(=O)N[C@H](C(=O)OCC(=O)NC2CCS(=O)(=O)C2)C(C)C)c1 (some centres undefined) | 8.8% | -0.7 | ? | -2.4% | -1.6 | -1.3% | 12.4%
Cc1ccc(SCC(=O)Nc2ccccc2N2CCOCC2)cc1 | -8.0% | 5.2 | -17.0% | 2.7% | nt | 1.4% | 4.1%
Cc1cc(C)n(CCCNC(=O)COc2ccc([N+](=O)[O-])cc2)n1 | 5.3% | -0.8 | 7.2% | -0.2% | nt | -0.5% | nt
CCOC(=O)c1ccc(CNC(=O)c2cc(C(C)(C)C)oc2C)o1 | -27.2% | -1.9 | -19.6% | -7.6% | 0.3 | 3.9% | 1.7%
O=C(CSc1nnc(-c2ccncc2)s1)Nc1ccc(Cl)c(C(=O)O)c1 | 4.2% | 7.3 | 29.0% | nt | 3.7 | 1.8% | 10.6%
O=c1nc(SCc2c(F)cccc2Cl)nc(-c2ccccc2)[nH]1 | 4.3% | 0.4 | -35.7%[inhibitor] | nt | 5.4 | -0.7% | -10.4%
CCOC(=O)c1sc(NS(=O)(=O)c2ccccc2Cl)nc1C | ? | 0.9 | 0.8% | -2.4% | -0.2 | -4.6% | 17.9%
COCC(=O)Nc1nnc(COc2ccccc2)s1 | 10.4% | -1.4 | -3.3% | -1.9% | -2.6 | 1.1% | 8.3%
CC(C)CC1C(=O)N(Cc2cn(Cc3ccco3)nn2)CCS(=O)(=O)N1Cc1ccc(-c2cccc(N(C)C)c2)cc1 (centres undefined) | nt | 1.0 | -108.6%[inhibitor] | ? | nt | -1.5% | nt
O=C(CN1C2=NCCN2c2ccccc21)c1ccco1 | 6.8% | -5.6 | 0.0% | 1.5% | -2.1 | -1.4% | 6.5%
Cc1ccn(CCC(=O)O)n1 | 14.2% | -2.2 | -18.8%[15.4 µM] | nt | -2.8 | 2.2% | 3.5%
CCNC(=O)CSc1nnc(CN2CCCCCC2=O)n1-c1ccccn1 | nt | -2.4 | 7.1%[15.4 µM] | nt | 2.1 | 0.1% | 8.6%
O=C(O)C1CCN(C(=O)c2csc(-c3ccc4c(c3)CCO4)n2)CC1 | 5.8% | -1.0 | ? | 4.4% | -0.1 | 7.7% | 16.0%
CCN(CC)c1ccc(NC(=O)Nc2ccc(C(C)=O)cc2)cc1 | -4.6% | -1.7 | 6.6% | 8.1% | 2.6 | ? | -16.6%
CC(C)(C)Cc1nnc(NC(=O)Cc2ccc([N+](=O)[O-])cc2)s1 | 10.3% | 1.1 | 2.8% | -0.3% | 2.1 | -0.3% | 39.8µM*
CC(=O)c1ccc(N2CCN(C(=O)c3cccs3)CC2)c(F)c1 | -13.3% | -0.5 | -74.7%[inhibitor] | -4.7% | 0.1 | 0.4% | 5.3%
Cc1cccc(N2CCN(C(=O)CCCn3c(=S)[nH]c4cc5c(cc4c3=O)OCO5)CC2)c1C | 1.5% | -1.7 | -43.4%[inhibitor] | -8.2% | 3.4 | 2.3% | 6.6%
N#Cc1ccccc1S(=O)(=O)N1CCN(CC(=O)NC(=O)NC2CCCCC2)CC1 | 1.0% | -3.2 | -1.9%[15.4 µM] | -3.9% | nt | 0.2% | nt
Cc1nn(C(C)(C)C)c(OC(=O)c2cccs2)c1Sc1ccccc1 | -2.7% | -1.9 | -46.6%[inhibitor] | -0.9% | 0.3 | 0.2%[38.3 µM] | 2.8%
C=CC[C@@H](CC(=O)N[C@@H](CO)Cc1ccccc1)C(=O)NC[C@H](OC(=O)[C@@H](CC=C)Cc1ccc(F)cc1)c1ccccc1 | -15.2% | -1.1 | 29.2% | 0.1% | nt | 0.5% | nt
CC(C)C[C@H](NC(=O)Nc1cccc(Br)c1)C(=O)O | -5.0% | 0.7 | 5.1%[15.4 µM] | nt | 0.6 | 1.7% | 9.8%
Cc1ccnc(NC(=O)c2cc3ccccc3o2)c1 | -5.5% | -1.8 | -29.2% | -2.1% | nt | 3.8% | nt
COc1ccc(C2CC(=O)N3C(=C2C#N)SCC3(O)c2ccccc2)cc1 (centres undefined) | 9.7% | -2.0 | 0.5% | 0.2% | 2.9 | 3.1%[38.3 µM] | 50.1µM*
CS(=O)(=O)c1nc(-c2ccccc2)cc(C(F)(F)F)n1 | 18.2% | -12.4 | -0.4%[15.4 µM] | -4.6% | 0.7 | -1.2% | -6.6%
COCC(C)NC(=O)CSc1nc2cc(S(=O)(=O)N3CCCCC3)ccc2o1 (centres undefined) | ? | -4.2 | -24.1% | 0.1% | nt | 1.3% | nt
CC1=NN(C(=O)Cc2ccc([N+](=O)[O-])cc2)C(O)(c2cccnc2)C1 (centres undefined) | 1.6% | -1.4 | -3.6% | -0.6% | -1.2 | 5.6%[38.3 µM] | 19.6%
CCN(CC)S(=O)(=O)c1ccc(N2CCOCC2)c(NC(=O)c2cc([N+](=O)[O-])ccc2Cl)c1 | nt | 5.2 | 35.0%[15.4 µM] | nt | -6.2 | 0.2% | -0.8%
C[C@@H]1CN([C@H](C)CO)C(=O)CCCn2cc(nn2)CO[C@H]1CN(C)C(=O)c1ccccc1 | nt | -5.1 | nt | -1.4% | nt | 1.3% | nt
Cc1ccc(S(=O)(=O)Nc2ccc3c(c2)nc(C)n3C)cc1 | -3.5% | -2.3 | -16.0% | 0.3% | 3.5 | 1.3% | 15.3%
CC(=O)C(=Cc1ccc(Cl)cc1)C(=O)c1ccccc1 | nt | -6.1 | nt | 2.0% | nt | 1.5% | nt
Going on with the list:
SMILES | gsp antag | D2 agonist | gsp ag | ClpP mod | Menin MLL FP FL | PINK1 modulator | Sfp PPTase inh
O=C(/C=C/c1cccc(O)c1)c1cccnc1 | 6.3% | 0.2 | 13.8%[15.4 µM] | nt | 4.7 | -0.9% | -25.9%
O=C(NN1C(=O)NC2(CCCCC2)C1=O)c1ccc(-c2ccccc2Cl)o1 | 2.0% | -4.1 | -3.7%[15.4 µM] | 1.2% | nt | 1.4% | nt
O=C(NCCc1ccccc1)c1cccc(Br)c1 | 0.5% | -1.0 | -2.0% | 3.5% | 1.8 | 1.6% | -8.7%
CCN1CCCC1CN(Cc1cc2cc(OC)ccc2[nH]c1=O)C(=O)NCc1ccccc1 (centres undefined) | 2.4% | -3.7 | -52.0%[inhibitor] | -29.4% | -2.4 | -0.3% | 16.7%
O=C(Nc1cccc(Cl)c1)Nc1csc([N+](=O)[O-])c1 | ? | 0.0 | -4.2%[15.4 µM] | nt | -0.3 | ? | -11.5%
CCCCCn1c(=O)[nH]c2cc(C(=O)NCCN3C(C)CCCC3C)ccc2c1=O (centres undefined) | 9.8% | -4.1 | 0.9% | nt | -0.7 | 6.8% | 6.2%
Cc1nc2cnc(N(C)C)nc2n(Cc2ccc(F)cc2)c1=O | nt | nt | nt | nt | -5.9 | -0.6% | 5.5%
Cc1ccccc1-n1c(=O)c2c(n3cnnc13)-c1ccccc1CC21CCCCC1 | -23.7% | -3.3 | -52.9%[inhibitor] | -5.9% | 8.8 | -2.8% | -4.3%
